Bioassay records as filed in PubChem BioAssay.
TDP1 cell CPT = DT40-hTDP1 cell growth loss with CPT; chicken DT40 Tdp1-/-;hTDP1 cells + 20 nM CPT, ATP luminescence, 48 h; Potency, µM (doses to about 46.2 µM), for the others: at the highest dose activity change, negative = growth inhibition, most hits filed as inhibitors; actives 12% (n = 420,000); note: nearly all actives have a fitted effect of over 55% in size
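Chicken DT40 Tdp1-/- cells complemented with human TDP1, 400 cells/well, exposed to compounds plus 20 nM camptothecin for at least 48 h at 37 C; viability read as ATP content by CellTiter-Glo luminescence.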
KAT2A inh = blocks human GCN5L2 histone acetyltransferase | Q92830 | GCN5L2 HAT assay, ThioGlo1 CoA-SH fluorescence | Potency, µM (highest dose often 58.9 µM), for inactives: at the top dose activity change, negative = inhibition, most hits filed as inhibitors | actives 0.21% (n = 390,000)
Target sequence (Q92830 whole entry, looked up): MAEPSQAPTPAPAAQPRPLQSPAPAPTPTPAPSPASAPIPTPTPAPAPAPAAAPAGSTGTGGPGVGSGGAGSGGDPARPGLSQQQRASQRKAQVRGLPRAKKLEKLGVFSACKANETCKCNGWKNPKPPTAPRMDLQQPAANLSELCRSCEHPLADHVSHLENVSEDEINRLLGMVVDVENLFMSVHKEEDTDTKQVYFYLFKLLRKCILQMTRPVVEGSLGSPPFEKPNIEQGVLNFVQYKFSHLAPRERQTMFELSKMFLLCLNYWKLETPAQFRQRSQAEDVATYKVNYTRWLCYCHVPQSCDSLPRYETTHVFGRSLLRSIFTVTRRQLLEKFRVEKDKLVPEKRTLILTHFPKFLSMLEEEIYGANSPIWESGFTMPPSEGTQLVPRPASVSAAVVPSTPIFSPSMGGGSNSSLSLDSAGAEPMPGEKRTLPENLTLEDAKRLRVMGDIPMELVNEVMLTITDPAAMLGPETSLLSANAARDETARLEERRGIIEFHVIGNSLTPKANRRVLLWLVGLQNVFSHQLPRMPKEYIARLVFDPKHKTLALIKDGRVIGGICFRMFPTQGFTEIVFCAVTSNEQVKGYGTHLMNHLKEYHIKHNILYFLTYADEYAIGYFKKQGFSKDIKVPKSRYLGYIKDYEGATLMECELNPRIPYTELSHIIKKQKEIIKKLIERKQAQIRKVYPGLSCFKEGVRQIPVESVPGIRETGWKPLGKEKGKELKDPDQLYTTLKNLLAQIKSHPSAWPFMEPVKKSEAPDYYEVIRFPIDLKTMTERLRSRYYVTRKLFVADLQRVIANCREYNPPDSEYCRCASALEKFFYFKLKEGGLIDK
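Fluorescence readout, Ex340nm/Em540nm: ThioGlo1 (50uM final) reacts with free CoA thiol released as 20nM GCN5L2 acetylates H3(1-25) peptide (75uM) using acetyl-CoA (70uM). Compound and enzyme sat 15 min beforehand; 20 min room-temperature reaction.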
An asterisk follows results filed as active; ? = inconclusive; / = no result given; [ ] = remark or other dose. Calls come from the whole dose curve; as a rule, active = well fitted curve in the direction sought with a large enough effect; inconclusive = small, poorly fitted or top-dose-only effect, or another doubt; inactive = no such curve, though single readings can be large; an effect the other way counts as inactive or inconclusive. % is set by controls: 0 for no effect and ±100 for the full control effect; potency is the fitted concentration of half-maximal effect.

SMILES | TDP1 cell CPT | KAT2A inh
Cc1cccc(C2c3[nH]c4ccccc4c3CCN2C(=O)c2ccc(=O)[nH]c2)n1 (stereo unspecified) | 6% | -7%
COc1ccc(S(=O)(=O)NCc2cccnc2)cc1Br | 4.6µM* | -11%
CN(CC(=O)Nc1ccc(F)cc1)C(=O)CN1C(=O)NC2(CCCCC2)C1=O | 3% | 1%
CC(=O)Nc1ccc(NC(=O)/C=C/c2cccc(C(F)(F)F)c2)cc1 | 3% | 23%
C=CCN(c1ccccc1)S(=O)(=O)c1cccc(C(=O)NCC(c2ccc(F)cc2)N2CCOCC2)c1 (stereo unspecified) | 13µM* | 1%
CC(=O)Nc1ccc(NC(=O)c2c(C)nc3ccccn23)cc1 | -3% | -1%
CC(C)N1CC(C(=O)Nc2ccc(Cl)c(Cl)c2)CC1=O (stereo unspecified) | 3% | -4%
CCCOC(=O)Nc1cc(OC)c(Cl)cc1OC | -17% | 1%
COC(=O)CC1C(=O)NCCN1C(=O)CSc1nnc(Nc2ccc(OC)cc2)s1 (stereo unspecified) | -22% | -6%
Cc1ccc(S(=O)(=O)Nn2c(C)nnc2-n2nc(C)cc2C)cc1 | 9% | 2%
COc1ccc(CCN2CC(C(=O)NCc3ccco3)CC2=O)cc1OC (stereo unspecified) | -4% | -8%
Cc1ccc(S(=O)(=O)Cn2nnnc2C(CC(C)C)N2CCN(C3CCCC3)CC2)cc1 (stereo unspecified) | -16% | -2%
CCN(CC(=O)NCc1cccs1)C(=O)/C=C/c1cc(Br)ccc1OC(F)F | ? | -2%
O=C(CN1CCCC1)NC12CC3CC(CC(C3)C1)C2 | -21% | -4%
CN(c1ccccc1)S(=O)(=O)c1cccc(NC(=O)CSc2nnc(C3CC3)n2C)c1 | -16% | -5%

Part of the list above in another layout.
C=CCN(c1ccccc1)S(=O)(=O)c1cccc(C(=O)NCC(c2ccc(F)cc2)N2CCOCC2)c1 (stereo unspecified)
  TDP1 cell CPT: 13µM*; KAT2A inh: 1%

CC(=O)Nc1ccc(NC(=O)c2c(C)nc3ccccn23)cc1
  TDP1 cell CPT: -3%; KAT2A inh: -1%

The results go on:
SMILES | TDP1 cell CPT | KAT2A inh
CC(=O)N(c1ccccc1C)c1ccccc1C | 6% | /
COc1ccccc1-c1ccc(SCC(=O)NC2CCCCC2)nn1 | -11% | 1%
OCC[C@H]1C[C@H](O)[C@@H](O)[C@@]2(Cc3ccccc3CCO2)O1 | 3% | -3%
CCc1ccc(C2=NN(CCC(=O)NCCc3ccc(OC)c(OC)c3)C(=O)CC2)cc1 | ? | -1%
Cc1ccc(-n2nc3c(N4CCC(C(=O)N5CCC(C)CC5)CC4)nnc(C)c3c2C)cc1 | -27% | -8%
CC1CN(c2ccc([N+](=O)[O-])cc2Cl)CCN1S(C)(=O)=O (stereo unspecified) | ? | -11%
COc1ccc(-n2c(=O)c3ccccc3n(Cc3cccc(C)c3)c2=O)cc1 | ? | 10%
Cc1ccccc1CNCCSc1nnnn1C | -2% | 2%
COc1ccc(CCN(Cc2cc3cc(C)ccc3[nH]c2=O)C(C)=O)cc1OC | -4% | 1%
CCOC(=O)CNC(=O)c1nn(-c2ccc(OCC)cc2)c(=O)c2ccccc12 | -2% | 1%
CCc1cc(=O)oc2c3c(cc(OCC(=O)NCc4cccnc4)c12)OC(C)(C)CC3 | ? | ?
CCCNS(=O)(=O)c1ccc(-n2cnnn2)c(OC)c1 | -20% | -5%
CC(C)NCC(O)COCc1ccc(Cl)cc1 (stereo unspecified) | -7% | -5%
O=C(NC(=S)N1CCCCC1c1cccnc1)c1ccccc1 (stereo unspecified) | -6% | ?
CN(C(=O)c1cc(COc2ccc(F)c(F)c2)on1)C1CCOC1 (stereo unspecified) | ? | 3%
CCn1nnc2cc(C(=O)NCC(c3ccccc3OC)N(C)C)ccc21 (stereo unspecified) | 0% | 3%
CCc1ccccc1NC(=O)CSc1nnc(CC)c(CC)n1 | -17% | 16%
C=CCNC(=O)c1ccc(N(Cc2ccccc2)S(C)(=O)=O)cc1 | 4% | 1%
CCOC(=O)C1=C(C)NC(=S)NC1c1cccs1 (stereo unspecified) | 2% | -2%
O=C(NCc1ccncc1)c1nnc(Cc2c(F)cccc2Cl)o1 | -26% | ?
CCN1CCN(c2ccc(S(=O)(=O)N3CCOCC3)cc2NC(=O)/C=C/c2ccc(OC)c(OC)c2)CC1 | 2% | -9%
Cc1ccc(NC(=O)N2CCN(c3ncccc3C(F)(F)F)CC2)cc1 | -18% | -4%
Cc1cc(NC(=O)CSc2nnc(-c3ccc(S(=O)(=O)N4CCCC4)cc3)n2C)no1 | -16% | -1%
COC(=O)C(C(=O)OC)C(C)C(C(=O)OC)C(=O)OC | -7% | ?
CCCn1c(N)c(C(=O)CSc2nc3ncc(Cl)cc3[nH]2)c(=O)[nH]c1=O | -17% | -4%
Cc1nn(CC(=O)NCCc2ccc(Cl)cc2Cl)c(C)c1[N+](=O)[O-] | -3% | -10%
COc1ccc(C(C(=O)NCC2CCCO2)N(C(=O)CNC(=O)c2ccco2)c2cc(C)ccc2C)cc1OC (stereo unspecified) | 0% | 6%
O=C(N/N=C/c1c(Cl)cccc1Cl)c1ccc(F)cc1 | -10% | -20%
O=C(Nc1ccc(N2CCOCC2)cc1)C1CCN(S(=O)(=O)c2ccc3c(c2)OCCO3)CC1 | 15% | -3%
C[n+]1cn(CC(O)COCc2ccccc2)c2ccccc21 (stereo unspecified) | ? | -5%
CCCc1c(C)c(C#N)c2nc3ccccc3n2c1NCCCN1CCOCC1 | ? | -14%
O=C(COC(=O)c1ccc([N+](=O)[O-])cc1Cl)NCc1ccco1 | 2% | 0%
O=C1N(CC(=O)N2CCc3ccccc32)CCN1Cc1ccccc1Cl | -29% | -8%
C(=C\c1nc(-c2cccnc2)no1)/c1ccccc1 | -12% | -1%
O=C(CN1C(=O)NC2(CCCC2)C1=O)NCc1ccco1 | 9% | -2%
CC(=O)c1cccc(NC(=O)CCCSc2ccccc2)c1 | -7% | -1%
CCCC(CCC)C(=O)Nc1cc(-c2cn3cccnc3n2)ccc1OC | 7% | 3%
CN(C)CCCNC(=O)c1ccc(-c2ccccc2)cc1 | ? | -1%
c1ccc(-c2nnc(CSc3nnc(-c4cccs4)o3)o2)cc1 | 0% | 1%
O/N=C1/CCCCC1c1ccccn1 (stereo unspecified) | -15% | -4%
COc1cc(NC(=O)CN2C(=O)NC(c3ccccc3)(c3ccccc3)C2=O)c(C)cc1[N+](=O)[O-] | ? | -3%
CC(C)NC(=O)C1CCN(S(=O)(=O)c2ccc(N3CCCC3=O)cc2)CC1 | -21% | -2%
Cc1ccc(OCCOc2ccc(S(=O)(=O)N3CCCC3)cc2C(N)=O)cc1 | -1% | 0%
Clc1ccc(-n2nnnc2SCc2cn3ccccc3n2)cc1 | -9% | -10%
CC(/C=N/n1cnnc1)=C\c1ccco1 | -2% | -7%

A draw from above in order of length of the SMILES, highest first:
SMILES | TDP1 cell CPT | KAT2A inh
COc1cc(NC(=O)CN2C(=O)NC(c3ccccc3)(c3ccccc3)C2=O)c(C)cc1[N+](=O)[O-] | ? | -3%
O=C(COC(=O)c1ccc([N+](=O)[O-])cc1Cl)NCc1ccco1 | 2% | 0%
CCCc1c(C)c(C#N)c2nc3ccccc3n2c1NCCCN1CCOCC1 | ? | -14%
c1ccc(-c2nnc(CSc3nnc(-c4cccs4)o3)o2)cc1 | 0% | 1%
Clc1ccc(-n2nnnc2SCc2cn3ccccc3n2)cc1 | -9% | -10%
C(=C\c1nc(-c2cccnc2)no1)/c1ccccc1 | -12% | -1%
CC(/C=N/n1cnnc1)=C\c1ccco1 | -2% | -7%

Another view of part of the listing above:
| smiles | TDP1 cell CPT | KAT2A inh |
| --- | --- | --- |
| CN(C)CCCNC(=O)c1ccc(-c2ccccc2)cc1 | ? | -1% |
| c1ccc(-c2nnc(CSc3nnc(-c4cccs4)o3)o2)cc1 | 0% | 1% |
| C(=C\c1nc(-c2cccnc2)no1)/c1ccccc1 | -12% | -1% |
| O=C1N(CC(=O)N2CCc3ccccc32)CCN1Cc1ccccc1Cl | -29% | -8% |
| CCCc1c(C)c(C#N)c2nc3ccccc3n2c1NCCCN1CCOCC1 | ? | -14% |
| O/N=C1/CCCCC1c1ccccn1 (stereo unspecified) | -15% | -4% |

New compounds follow:
SMILES | TDP1 cell CPT | KAT2A inh
COc1ccc(NC(=O)CC23CC4CC(C2)CC(n2nnc(C)n2)(C4)C3)cc1 | -16% | -5%
OCc1nc2ccccc2n1Cc1ccc(Cl)cc1 | ? | -6%
O=C(Nc1c(F)cc(F)cc1Br)c1cc(-c2ccc(O)cc2)on1 | ? | -13%
COCCOc1cc(NC(=O)CS(=O)CC(=O)N(C)C)c(Cl)cc1Cl (stereo unspecified) | 6% | -13%
COc1cc(-c2nnc(SCC(=O)NC3CCCC3)n2C)cc(OC)c1O | 0% | 0%
CCC12CC3CC(C1)CC(C(=O)O)(C3)C2 | -19% | -4%
COc1ccc(NC(=O)COC(=O)c2c(C)noc2C)c(OC)c1 | 2% | 10%
Cc1ccc(C(=O)Nc2cc(=O)n(C)c(=O)n2C)o1 | 2% | -5%
NC(=O)c1ccc(SCC(=O)OCC(=O)N2CCCCC2)c([N+](=O)[O-])c1 | 14% | -3%
Cc1c(Cl)cccc1NC(=O)N1CCC(CN2CCOCC2)CC1 | -13% | -2%
Cc1cc(C)cc(NC(=O)N2CCC(N3CCCCC3)CC2)c1 | -6% | -5%
CCCCOC(=O)c1ccc(Nc2ncnc3[nH]ncc23)cc1 | ? | 0%
CCOC(=O)C(=O)N/N=C/c1cccc(Br)c1 | 6% | -1%
CCOC(=O)Cc1csc(NC(=S)NC(=O)CC(C)C)n1 | -4% | 3%
COC(=O)c1ccc2c(c1)N(C)S(=O)(=O)c1cnc(SCC(=O)C(C)(C)C)nc1-2 | 12% | 0%
CCn1c(=O)c2ccccc2n(Cc2ccc([N+](=O)[O-])cc2)c1=O | 3% | -11%
O=C(COc1ccc2c(c1)OCO2)Nc1nccs1 | -4% | -3%
O=C(O)/C=C/C(=O)NNC(=O)c1ccccc1Br | -1% | -10%
CCC(CC)C(=O)Nc1ccccc1NC(C)=O | 11% | 0%
Cc1ccccc1CSc1nc2c(c(=O)[nH]1)CCC2 | ? | 1%
O=C(c1ccccc1)N1CCN(c2ncnc3c(-c4ccccc4)nsc23)CC1 | ? | 3%
COCCNC(=O)Cn1c(=O)n(Cc2ccco2)c(=O)c2ccccc21 | 6% | 0%
CCOC(=O)c1c(C)[nH]c(=S)c(C#N)c1-c1ccccc1 | -4% | -9%
Cc1cc2cc(C#N)c(N3CCN(S(C)(=O)=O)CC3)nc2cc1C | -16% | -6%
O=C(NCc1ccccc1)c1nc[nH]c1C(=O)NCc1ccccc1 | -12% | 0%
CCCCNC(=O)NNC(=O)COc1cc(C)cc(C)c1 | -3% | 1%
Cc1cc2ncn(C(=O)N3CCCCC3)c2cc1C | -6% | 3%
Cn1c(-c2ccccc2)cnc1NCc1ccc(F)cc1 | ? | -2%
CC(=O)Nc1ccc(S(=O)(=O)Nc2c(C)n(C)n(-c3ccccc3)c2=O)cc1 | -1% | 1%
O=C(C1CCCN(S(=O)(=O)c2cccc3nonc23)C1)N1CCN(c2ccccc2F)CC1 (stereo unspecified) | 18µM* | -17%
COc1ccc(S(=O)(=O)NCCN2CCOCC2)cc1Br | ? | -7%
CCCCn1c(N)c(N(CCOC)C(=O)c2ccc(S(=O)(=O)N(CC)c3ccccc3)cc2)c(=O)[nH]c1=O | -23% | 1%
COc1ccc(CCC(=O)N2CCN(S(=O)(=O)c3ccc(OC)cc3)CC2)cc1 | -26% | 0%
COc1ccc(CN2CCCCC2C)cc1OC (stereo unspecified) | -6% | -5%[0.501 µM]
O=C(Nc1nc(-c2ccccc2)cs1)C1COc2ccccc2O1 (stereo unspecified) | -5% | -5%
CCc1c(C#N)c(SCCC(=O)Nc2ccc(C)cc2)nc2c1C(=O)CC(C)(C)C2 | ? | -15%
Cc1ccc(N(CC(=O)N/N=C/c2cccc(Br)c2)S(C)(=O)=O)cc1 | 0% | -3%
CCN(CC)S(=O)(=O)c1ccc(-c2nnc(SCC(=O)Nc3nc(C)cs3)o2)cc1 | ? | -2%
O=C(CCc1nnc(CCCc2ccccc2)o1)N1CCCCCC1 | -1% | -21%
CCCc1cc(=O)[nH]c(SCC)n1 | 0% | -1%
CCOc1ccc2c(c1)OC(c1ccc(C)cc1)(C(F)(F)F)NC2=O (stereo unspecified) | 1.5µM* | 5%
CCOc1cc(C(=O)Nc2ccc3c(c2)n(C)c(=O)c(=O)n3C)cc(OCC)c1OCC | ? | ?
CCOc1cccc(-c2c(C(=O)N/N=C/c3cccs3)nnn2-c2nonc2N)c1 | -17% | -17%
CCC(=O)Nc1ccc2c(c1)nc(CCN1CCN(C)CC1)n2C | -4% | -8%
Cc1ccc[n+](CC(=O)/C=C2\N(C)c3ccccc3C2(C)C)c1 | 1.2µM* | -7%

An excerpt, and most or all hits are left out here.
